Assay outcomes from PubChem BioAssay.
Sfp PPTase inh: inhibitors of Bacillus subtilis Sfp phosphopantetheinyl transferase. Biochemical Sfp PPTase activity, qHTS. Potency, µM, inactives show max response, negative = inhibition, usual class: inhibitors. 310,000 compounds, 3.5% hits; active means well fitted inhibition curve with a large enough effect; inconclusive means small, poorly fitted or top-dose-only effect, or another doubt; inactive means no such curve, though single readings can be large or run the other way;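 further: the enzyme is Sfp with the accession as filed and its product quenches rhodamine fluorescence; potency means the concentration at half of the fitted maximal effect; 0% = enzyme reaction without inhibitor and -100% = no enzyme wells; top concentration of the series not given in the record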
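After 15 min at room temperature with compound, 15 nM Sfp received 5 uM rhodamine-CoA plus 12.5 uM BHQ-2-ybbR (50 mM Hepes pH 7.6, 10 mM MgCl2). Rate came from the fluorescence difference over 30 min, ex 525/em 598 nm.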
D2 agonist: human D2 receptor agonism in beta-arrestin assay. P14416. DiscoveRx PathHunter D2 beta-arrestin, luminescence, 90 min; 100% = 57 uM dopamine signal. activation, % (concentration not given with the values). 360,000 compounds, 0.084% hits. AID 624465; in the data active = activation above about 40%; inconclusive = about 15% to 40%; inactive = below about 15%; further: the text of the record calls up to 30% inactive
Target sequence (P14416 whole entry, looked up): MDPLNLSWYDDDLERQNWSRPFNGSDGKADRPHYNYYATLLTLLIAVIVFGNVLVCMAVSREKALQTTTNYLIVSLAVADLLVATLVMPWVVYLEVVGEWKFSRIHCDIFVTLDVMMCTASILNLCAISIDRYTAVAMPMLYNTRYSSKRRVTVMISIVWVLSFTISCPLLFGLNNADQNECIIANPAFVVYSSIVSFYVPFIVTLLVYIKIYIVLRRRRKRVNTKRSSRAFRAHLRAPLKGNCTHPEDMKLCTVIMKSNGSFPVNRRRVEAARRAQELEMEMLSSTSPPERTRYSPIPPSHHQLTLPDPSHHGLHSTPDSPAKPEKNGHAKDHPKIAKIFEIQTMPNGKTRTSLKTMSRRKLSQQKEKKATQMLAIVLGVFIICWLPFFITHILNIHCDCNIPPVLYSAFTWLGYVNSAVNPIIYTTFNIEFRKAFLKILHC
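DiscoveRx PathHunter D2 beta-arrestin cells (2,100/well) attached overnight, then compound-stimulated 90 min at 37 C in HBSS/10 mM HEPES/0.1% Tween-20 buffer; beta-galactosidase complementation read by luminescence after 1 h at ambient temperature. Dopamine 57 uM final (EC100) as control.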
CtBP-E1A blk: CtBP/E1A binding inhibition; activity change, % (no concentration beside the values); AID 651724; AlphaScreen GST-E1A/His-CtBP binding, 1536-well; stronger effect = lower value; control for the full effect not named in the record; 340,000 compounds, 0.49% hits; in the data active means activity change below about -65%; inconclusive means about -30% to -65%; inactive means above about -30%; further: on the % scale 0 is the no-effect control and ±100 the full control effect
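In 5 uL wells, 23 nL compound meets equimolar GST-E1A and His-CtBP (5X stock 125 nM each) for 2 h, 37 °C. Beads (5X, 50 ug/mL) then 1 h, 37 °C, dark.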
PINK1 expr mod: PINK1 expression modulation; PINK1 immunofluorescence, high-content cytometry, 24 h; Potency, µM (highest dose often 76.6 µM), for the others: at the top dose activation (PINK1 increase), actives largely listed as activators; 410,000 compounds, 0.2% hits; AID 624263; active = well fitted activation curve with a large enough effect; inconclusive = small, poorly fitted or top-dose-only effect; inactive = flat fitted curve, though single readings scatter; cell line not stated here;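 further: potency means the concentration at half of the fitted maximal effect; % of control where 0% means no effect; nearly all actives have a fitted effect of over 65% in size; a mitochondrial uncoupler was the plate control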
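PINK1 protein, normally rapidly degraded, was detected by immunofluorescence after 24 hour compound treatment of a stable cell line. Titration data (5 concentrations) came from laser-scanning cytometry, with CCCP-treated wells as controls.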
D2 potentiator: positive allosteric modulators of human D2 dopamine receptor. P14416. DiscoveRx D2 beta-arrestin cells, luminescence, 90 min; 100% = 57 uM dopamine signal. potentiation, % (no concentration beside the values). 360,000 compounds, 0.23% hits; active = potentiation of 50% or more; inconclusive = 30% to 50%; inactive = 30% or less;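 further: compound concentration not given in the record; tested on top of an EC20 dose of dopamine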
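PathHunter beta-arrestin assay in DiscoveRx D2 cells. Compounds were added with an EC20 of dopamine (50 nM final) for 90 min at 37 deg C. Luminescence was read 1 h after detection reagent, with 57 uM dopamine as the EC100 control.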
TRPV1 PAM: human TRPV1 potentiation | Q8NER1 | TRPV1-expressing cells, Fluo-8 calcium influx, capsaicin EC20 potentiation; host cell line not named in the record; control for the full effect not named in the record | potentiation, % at 8.33 µM | 320,000 compounds, 0.02% hits | AID 540277; active means potentiation above 80%; inconclusive means 30% to 80%; inactive means below 30%; further: 0% is about no effect
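Fluo-8 calcium influx in TRPV1-expressing cells, kinetic read (ex 480/em 520 nm). Compound added and read 3 min for agonist activity, followed by capsaicin at EC20 final and 2 min further read for enhancement.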
Six1-Eya2 blk: blocks human Six1 binding to Eya2; AlphaScreen GST-Six1/His-Eya2 binding, biochemical; stronger effect = lower value; control for the full effect not named in the record; Q15475+O00167; activity change, % (test concentration not listed); 360,000 compounds, 0.56% hits; in the data active = activity change below about -65%; inconclusive = about -30% to -65%; inactive = above about -30%; further: on the % scale 0 is the no-effect control and ±100 the full control effect
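AlphaScreen with GST-Six1 and His-Eya2 (5X mix: 250 nM and 500 nM), glutathione donor and nickel acceptor beads; buffer 50 mM Tris pH 8.0, 300 mM NaCl, 1 mM TCEP; 1 h at 37 C in the dark.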
An asterisk follows results filed as active; [ ] = remark or other dose.

Results for O=C(NS(=O)(=O)c1ccc2c(c1)OCCO2)c1ccccc1 ?
Sfp PPTase inh: -1%; D2 agonist: -3.9; CtBP-E1A blk: 3; PINK1 expr mod: -1.9%; D2 potentiator: -46; TRPV1 PAM: 15; Six1-Eya2 blk: 4

How did OCCC1CN(Cc2cnc(-c3ccccc3)s2)CCN1CCc1ccccc1 (stereo not drawn) do in these assays?
Sfp PPTase inh: 10%; D2 agonist: -4.8; PINK1 expr mod: 0.5%; D2 potentiator: -12; TRPV1 PAM: 20; Six1-Eya2 blk: 4

What do the screens show for `Cc1cccc(NC(=O)CN2CCC(NC(=O)C3CCCCC3)CC2)c1C`?
Sfp PPTase inh: 27%; D2 agonist: -3.8; CtBP-E1A blk: 0; PINK1 expr mod: 0.0%; D2 potentiator: -4; TRPV1 PAM: 28; Six1-Eya2 blk: -1

How did COc1ccc2nc(NC(=O)CSC(C)C(=O)Nc3cc(C)on3)sc2c1 (stereo not drawn) do in these assays?
D2 agonist: 1.3; CtBP-E1A blk: -11; PINK1 expr mod: -3.7%; D2 potentiator: -67; TRPV1 PAM: 2; Six1-Eya2 blk: -16

Results for CNC(=O)CN(Cc1ccccc1)S(=O)(=O)c1ccc(Cl)cc1 ?
Sfp PPTase inh: 16%; D2 agonist: -6.3; CtBP-E1A blk: 1; PINK1 expr mod: 4.2%; D2 potentiator: -5; TRPV1 PAM: 8; Six1-Eya2 blk: 6

How did CCOC(=O)C1CCN(c2c(Nc3ccc4c(c3)OCCO4)c(=O)c2=O)CC1 do in these assays?
Sfp PPTase inh: 0%; D2 agonist: -1.5; CtBP-E1A blk: -23; PINK1 expr mod: 1.2%; D2 potentiator: -11; TRPV1 PAM: -7; Six1-Eya2 blk: 2

What do the screens show for `Cc1cccc(/C=C(\c2nc3ccccc3[nH]2)S(=O)(=O)c2ccccc2)c1`?
Sfp PPTase inh: -8%; D2 agonist: -0.9; CtBP-E1A blk: 6; PINK1 expr mod: -2.0%; D2 potentiator: -16; TRPV1 PAM: 10; Six1-Eya2 blk: -6

Results for CCOc1ccc(N=C2SCC(=O)N2CC)cc1 ?
Sfp PPTase inh: 18%; D2 agonist: -3.4; CtBP-E1A blk: 2; PINK1 expr mod: 2.6%; D2 potentiator: -2; TRPV1 PAM: -12; Six1-Eya2 blk: 12

Results for O=C(NCc1ccc(-c2csnn2)cc1)c1cccs1 ?
Sfp PPTase inh: 11%; D2 agonist: -3.5; CtBP-E1A blk: -13; PINK1 expr mod: 2.4%; D2 potentiator: -4; TRPV1 PAM: 8; Six1-Eya2 blk: -8

How did COc1ccc(N2CCN(C3CCCN(Cc4ccccc4OCCO)C3)CC2)cc1 (stereo not drawn) do in these assays?
Sfp PPTase inh: 23%; D2 agonist: -4.9; CtBP-E1A blk: 0; PINK1 expr mod: 3.8%; D2 potentiator: 1; TRPV1 PAM: -3; Six1-Eya2 blk: 9

Results for COc1ccc(/C(N)=N/OC(=O)Cc2ccc(C)cc2)cc1 ?
Sfp PPTase inh: -10%; D2 agonist: 1.1; CtBP-E1A blk: 25; PINK1 expr mod: 3.8%; D2 potentiator: -10; TRPV1 PAM: 6; Six1-Eya2 blk: 59

Results for Cc1cc(C)nc(SCC(=O)Nc2ccc(S(=O)(=O)Nc3ncccn3)cc2)n1 ?
Sfp PPTase inh: 13µM*; D2 agonist: 1.5; CtBP-E1A blk: 4; PINK1 expr mod: -1.8%; D2 potentiator: -2; TRPV1 PAM: -1; Six1-Eya2 blk: 4

Results for O=C(CCSCCC(=O)NCC1CCCO1)NCC1CCCO1 (stereo not drawn) ?
Sfp PPTase inh: inconclusive; D2 agonist: -1.8; CtBP-E1A blk: 7; PINK1 expr mod: -1.8%; D2 potentiator: -3; TRPV1 PAM: 2; Six1-Eya2 blk: 3

How did O=C(CSc1nc(Nc2ccccc2)nc(N2CCOCC2)n1)Nc1ccccc1Cl do in these assays?
Sfp PPTase inh: 7%; D2 agonist: 4.0; CtBP-E1A blk: 12; D2 potentiator: 3; TRPV1 PAM: -4; Six1-Eya2 blk: 2

What do the screens show for `COc1cc(/C=N/NC(=O)COc2ccccc2[N+](=O)[O-])ccc1OC(=O)c1ccco1`?
Sfp PPTase inh: -17%; D2 agonist: -1.4; CtBP-E1A blk: 0; PINK1 expr mod: -2.6%; D2 potentiator: -5; TRPV1 PAM: 8; Six1-Eya2 blk: -9

Results for CCOc1ncnc2c1[nH]c1ccccc12 ?
Sfp PPTase inh: 15%; D2 agonist: 0.9; CtBP-E1A blk: 7; PINK1 expr mod: -2.2%; D2 potentiator: -4; TRPV1 PAM: -29; Six1-Eya2 blk: 0

Results for CCN(CC)C(=O)[C@H]1CC(CC(=O)NC/C=C(\C)CCC=C(C)C)C(=O)N2CCc3c([nH]c4ccc(OC)cc34)[C@]12C (stereo partly drawn) ?
D2 agonist: -2.2; CtBP-E1A blk: -18; PINK1 expr mod: -1.3%; D2 potentiator: -10; Six1-Eya2 blk: -23

How did COc1ccccc1-c1ccc2c(c1)C(C)(Cc1ccccc1C#N)C(=O)N2 (stereo not drawn) do in these assays?
D2 agonist: 12; CtBP-E1A blk: -10; PINK1 expr mod: 0.7%; D2 potentiator: 1; Six1-Eya2 blk: -18

How did CN=C1SC(CC(=O)Nc2ccc(C(=O)O)cc2)C(=O)N1C (stereo not drawn) do in these assays?
Sfp PPTase inh: -4%; D2 agonist: -1.4; CtBP-E1A blk: 16; PINK1 expr mod: 0.4%[38.3 µM]; D2 potentiator: -13; TRPV1 PAM: 8; Six1-Eya2 blk: -1

How did CCOC(=O)C1C2C=CC3(CN(c4cccc(Cl)c4)C(=O)C13)O2 (stereo not drawn) do in these assays?
Sfp PPTase inh: -7%; D2 agonist: -1.7; CtBP-E1A blk: 3; PINK1 expr mod: -3.3%; D2 potentiator: -3; Six1-Eya2 blk: 1

How did Cc1cc(=O)oc2ccc(OCC(=O)N(Cc3ccc(F)cc3)Cc3ccco3)cc12 do in these assays?
Sfp PPTase inh: inconclusive; D2 agonist: 0.3; CtBP-E1A blk: -8; PINK1 expr mod: -1.1%; D2 potentiator: 13; TRPV1 PAM: 1; Six1-Eya2 blk: -14

Results for Cc1cccc(NC(=O)c2ccccc2NC(=O)C2CCCCC2)c1C ?
Sfp PPTase inh: 28µM*; D2 agonist: 0.3; CtBP-E1A blk: -1; PINK1 expr mod: 2.7%[38.3 µM]; D2 potentiator: -6; TRPV1 PAM: 7; Six1-Eya2 blk: 0

What do the screens show for `CC(/C=N/NC(=O)c1cccnc1)=C\c1ccccc1`?
Sfp PPTase inh: -4%; D2 agonist: 5.4; CtBP-E1A blk: 1; PINK1 expr mod: -1.3%; D2 potentiator: -22; TRPV1 PAM: -27; Six1-Eya2 blk: -1

What do the screens show for `COc1ccc(C=O)cc1OS(=O)(=O)c1ccccc1[N+](=O)[O-]`?
Sfp PPTase inh: -2%; D2 agonist: 5.7; CtBP-E1A blk: 2; PINK1 expr mod: 1.0%; D2 potentiator: 1; TRPV1 PAM: 8; Six1-Eya2 blk: -4

How did O=S(=O)(c1ccc(-c2nnco2)cc1)N1CCCCC1 do in these assays?
Sfp PPTase inh: 12%; D2 agonist: 0.2; CtBP-E1A blk: 7; PINK1 expr mod: -2.2%; D2 potentiator: -2; TRPV1 PAM: -5; Six1-Eya2 blk: -3

What do the screens show for `Cc1ccc(NC(=O)c2ccc(S(=O)(=O)C(F)F)cc2)c(C)c1`?
Sfp PPTase inh: 11%; D2 agonist: -5.9; CtBP-E1A blk: -11; PINK1 expr mod: -0.8%; D2 potentiator: 1; TRPV1 PAM: 5; Six1-Eya2 blk: 10

Results for C=C1[C@@H](O)[C@H](CC(C)C)N(Cc2ccccc2Br)S1(=O)=O ?
D2 agonist: 1.1; PINK1 expr mod: -1.3%; D2 potentiator: -2; Six1-Eya2 blk: 14

Results for COc1cccc(Oc2ccc(C(F)(F)F)cc2NC(=O)CCc2nc3ccccc3c(=O)[nH]2)c1 ?
Sfp PPTase inh: 7%; D2 agonist: -3.3; CtBP-E1A blk: -2; PINK1 expr mod: 18%; D2 potentiator: -9; TRPV1 PAM: -9; Six1-Eya2 blk: -6

Results for COc1ccc(N(C(=O)c2ccco2)C(C(=O)NC2CCCC2)c2cccs2)cc1OC (stereo not drawn) ?
Sfp PPTase inh: 40µM*; D2 agonist: -3.6; CtBP-E1A blk: -4; PINK1 expr mod: 0.4%; D2 potentiator: -3; TRPV1 PAM: 2; Six1-Eya2 blk: 0

How did COc1nc2ccccc2nc1N1CCN(c2ccc(F)cc2)CC1 do in these assays?
Sfp PPTase inh: -8%; D2 agonist: -0.8; CtBP-E1A blk: 4; PINK1 expr mod: 0.9%; D2 potentiator: 1; TRPV1 PAM: 4; Six1-Eya2 blk: 10

What do the screens show for `O=[N+]([O-])c1ccc(COc2ccc(CNc3ccccc3)cc2)cc1`?
Sfp PPTase inh: -2%; D2 agonist: -1.3; CtBP-E1A blk: -4; PINK1 expr mod: 8.0%; D2 potentiator: 26; TRPV1 PAM: -16; Six1-Eya2 blk: -12

How did O=C(COc1ncnc2c(Cl)cc(Cl)cc12)N1CCN(S(=O)(=O)c2ccccc2)CC1 do in these assays?
Sfp PPTase inh: 12%; D2 agonist: -1.3; CtBP-E1A blk: -1; PINK1 expr mod: 3.3%; D2 potentiator: -22; TRPV1 PAM: -8; Six1-Eya2 blk: -2

In the list so far, three contain a furan ring, fused or not:
What do the screens show for `COc1cc(/C=N/NC(=O)COc2ccccc2[N+](=O)[O-])ccc1OC(=O)c1ccco1`?
Sfp PPTase inh: -17%; D2 agonist: -1.4; CtBP-E1A blk: 0; PINK1 expr mod: -2.6%; D2 potentiator: -5; TRPV1 PAM: 8; Six1-Eya2 blk: -9

How did Cc1cc(=O)oc2ccc(OCC(=O)N(Cc3ccc(F)cc3)Cc3ccco3)cc12 do in these assays?
Sfp PPTase inh: inconclusive; D2 agonist: 0.3; CtBP-E1A blk: -8; PINK1 expr mod: -1.1%; D2 potentiator: 13; TRPV1 PAM: 1; Six1-Eya2 blk: -14

Results for COc1ccc(N(C(=O)c2ccco2)C(C(=O)NC2CCCC2)c2cccs2)cc1OC (stereo not drawn) ?
Sfp PPTase inh: 40µM*; D2 agonist: -3.6; CtBP-E1A blk: -4; PINK1 expr mod: 0.4%; D2 potentiator: -3; TRPV1 PAM: 2; Six1-Eya2 blk: 0
